KCNQ2 pot: potentiators of rat KCNQ2 potassium channel | O88943 | CHO-K1 KCNQ2, FluxOR thallium flux fluorescence; hits give high values | B-score at 10 µM | actives 0.54% (n = 310,000);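 active = fluorescence ratio B-score at least 3 SD of library B-scores, with initial fluorescence B-score within 3 SD, cut at about 5.3 in these data; same plate scores as AID 2156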;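 also: B-score of peak minus minimum over baseline fluorescence ratio after K+ and Tl+ stimulus; positive B-score means potentiation of KCNQ2 with more thallium influx and brighter signal; only the inactives scoring about 0 or higher are listed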
Target sequence (O88943 whole entry, looked up): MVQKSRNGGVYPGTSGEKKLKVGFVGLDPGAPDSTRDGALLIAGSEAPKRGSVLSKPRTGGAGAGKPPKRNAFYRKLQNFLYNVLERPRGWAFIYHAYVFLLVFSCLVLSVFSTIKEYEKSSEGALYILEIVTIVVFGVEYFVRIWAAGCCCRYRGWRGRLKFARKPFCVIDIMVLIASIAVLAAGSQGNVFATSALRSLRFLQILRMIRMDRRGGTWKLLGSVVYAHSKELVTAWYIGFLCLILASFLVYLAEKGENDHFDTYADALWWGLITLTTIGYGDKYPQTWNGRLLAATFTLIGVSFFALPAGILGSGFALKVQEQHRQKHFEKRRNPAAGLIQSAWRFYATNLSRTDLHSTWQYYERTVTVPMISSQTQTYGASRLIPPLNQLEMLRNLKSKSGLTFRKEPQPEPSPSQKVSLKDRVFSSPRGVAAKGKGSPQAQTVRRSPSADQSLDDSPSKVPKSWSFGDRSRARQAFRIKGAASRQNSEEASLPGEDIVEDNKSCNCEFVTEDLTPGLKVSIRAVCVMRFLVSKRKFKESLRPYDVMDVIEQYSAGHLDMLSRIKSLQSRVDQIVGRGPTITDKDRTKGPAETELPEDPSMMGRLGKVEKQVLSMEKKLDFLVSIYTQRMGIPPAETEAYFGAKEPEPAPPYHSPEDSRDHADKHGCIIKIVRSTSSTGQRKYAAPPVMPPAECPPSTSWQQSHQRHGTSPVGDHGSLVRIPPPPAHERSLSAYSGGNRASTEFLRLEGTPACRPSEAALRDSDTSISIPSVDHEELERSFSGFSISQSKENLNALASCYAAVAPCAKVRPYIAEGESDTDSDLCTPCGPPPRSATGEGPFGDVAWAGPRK
KCNQ2 pot baseline: further read-out of KCNQ2 pot, marked with its call; B-score; compound at 10 µM; measured here: initial fluorescence intensity artifact check;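 brightness before thallium and not channel activity; 0 = typical well and far values either way flag optical interference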
An asterisk follows results filed as active; nt = not tested or not shown. This is a subset; rates above refer to the full screens.

SMILES	KCNQ2 pot	KCNQ2 pot baseline
CC(/C=N/n1c(-c2ccncc2)n[nH]c1=S)=C\c1ccco1	0.19	0.41
CC(=O)Nc1ccc(C(=O)Nc2ccc(S(=O)(=O)N3CCCCC3)cc2)cc1	0.77	0.41
O=C(NCCc1nnc2ccccn12)c1cccs1	0.24	-0.03
COC(=O)Cc1c(OC)ccn(CCc2c[nH]c3ccccc23)c1=O	0.01	1.74
Cc1cc(NC(=O)CSc2nc3ccccc3n2CC(=O)N2CC(C)CC(C)C2)no1 (stereo not given)	0.06	0.04
N#Cc1c(SCC(=O)Nc2nncs2)sc2c(O)cc(=O)[nH]c12	0.52	1.29
COc1ccccc1-c1cc(C(F)(F)F)nc(S(=O)(=O)CCCC(=O)O)n1	1.31	-0.05
O=C(O)c1cc(-c2ccc(/C=C3\NC(=O)N(c4ccc(Cl)cc4)C3=O)o2)ccc1Cl	0.41	0.88
CCN(CC)CCC#CC1(O)c2ccccc2-c2ccccc21	0.66	-0.45
O=C(C1CCN(S(=O)(=O)c2ccccc2[N+](=O)[O-])CC1)N1CCOCC1	0.81	1.38
COc1ccc(Oc2nc(-c3ccccc3)ncc2S(=O)(=O)c2ccccc2)cc1	1.39	-0.76
O=c1cc(CSc2nnc(NC3CCCCC3)s2)nc2sccn12	0.72	-0.09
NS(=O)(=O)OCC(Cc1ccccc1)N1C(=O)c2ccccc2C1=O (stereo not given)	0.02	-0.34
Cc1ccccc1C(=O)NC(=S)Nc1ccc(S(=O)(=O)N2CCOCC2)cc1	0.47	-0.07
N#CCCn1c(=O)n(CCC#N)c2ccccc21	1.33	0.22
Cc1ccc(-n2[nH]c(C)c(/C=N/Nc3ccc([N+](=O)[O-])cc3[N+](=O)[O-])c2=O)cc1C	0.66	-3.08
O=C(CCCCCn1nnc2ccccc2c1=O)Nc1ccccc1Cl	0.93	0.43
CC1C(C#N)=C(N)OC2=C1C(=O)CCC2 (stereo not given)	0.42	0.19
O=C(N/N=C\c1ccc([N+](=O)[O-])o1)c1cncc(Br)c1	0.64	-0.15
O=C(COC(=O)c1ccc[n+]([O-])c1)Nc1c(Br)cc([N+](=O)[O-])cc1Br	0.07	1.6
O=C1CN(C(=O)COC(=O)c2ccccc2NCc2ccco2)c2ccccc2N1	0.11	0.15
Fc1cccc(Cl)c1Cn1nnc2c(-n3ccnc3)ncnc21	0.11	-2.41
Cc1cc(C)c(C)c(S(=O)(=O)Nc2ccc(OCC(=O)O)cc2)c1C	0.1	0.08
O=C(NC1CC1)c1sccc1-n1cccc1	2.2	-0.24
CC(C)C(=O)NC(NC1CCS(=O)(=O)C1)C(Cl)(Cl)Cl (stereo not given)	0.06	1.1
CC(C)c1nc(CNC(=O)C2CCC(=O)N(CCc3ccc(Cl)cc3)C2)no1 (stereo not given)	0.02	-1.63
O=C(Cc1ccc(-n2c(=O)c3sccc3n(CC(=O)Nc3ccccc3F)c2=O)cc1)NCc1ccco1	0.88	0.45
O=S(=O)(c1ccc(-c2n[nH]c(=S)o2)cc1)N1CCCC1	0.7	0.53
COC(CNC(=O)C(C)n1nc(C)c2ccccc21)OC (stereo not given)	1.41	-0.12
CCN1CCCC1CN(Cc1cc2ccc(C)cc2[nH]c1=O)C(=S)Nc1cccc(OC)c1 (stereo not given)	0.97	-0.01
O=C(CSc1nc2ccccc2nc1N1CCCC1)Nc1ccc(Cl)cc1	0.08	0.57
CC(=O)Nc1ccc(S(=O)(=O)Nc2ccc(Cl)nn2)cc1	0.59	0.88
COc1ccc(NC(=O)c2ocnc2C)cc1OC	0.18	0.73
CC(=O)OCC1OC(n2ccc(=O)[nH]c2=O)C(O)C1O (stereo not given)	0.02	2.23
CN(Cc1ccccc1)C(=O)c1cnc2n(c1=O)CCS2	1.44	-1.34
CC(C)NC(=O)Nc1cccc(Cl)c1	0.37	0.12
COc1ccc(CCN2C(=O)CCC2(C)C(=O)NC2CCCC2)cc1OC (stereo not given)	0.63	0.42
O=C(O)c1csc(Cc2ccccc2)n1	0.21	1.07
CCc1ccc(NC(=O)CSc2nc3ccsc3c(=O)n2CCC(=O)O)cc1	0.7	-0.9
COc1ccc(OC)c(S(=O)(=O)NCCO)c1	1.16	0.83
CC12CC3CC(C)(C1)CC(C(=O)Nc1nn[nH]n1)(C3)C2	0.86	-0.06
Cc1ccc(N=Nc2c(C)[nH]n(C(N)=S)c2=O)cc1C	0.38	-0.21
O=C(Nc1cccc2c1CCCC2)c1ccccc1Cl	0.46	-0.56
CCN1CCN(C(=O)c2ccc(CS(=O)Cc3ccc(C)cc3)o2)CC1 (stereo not given)	0.59	-0.82
CCCS(=O)(=O)N1CCCC(C(=O)Oc2ccc(OC)cc2)C1 (stereo not given)	0.4	0.52
Cc1csc(NC(=S)Nc2cccc(Cl)c2)n1	1.46	-1.52
O=C(Nc1ncc(Cl)cc1Cl)c1c(F)cccc1Cl	0.09	0.89
O=C(CSc1n[nH]c(=O)n1C1CC1)NCc1ccccc1	1.15	-0.46
CCc1cccc(NC(=O)C2CCCN2S(=O)(=O)c2cccc3cccnc23)c1 (stereo not given)	0.16	-0.4
CSc1nc(C)cc(OCC(=O)n2nc(C)cc2C)n1	0.17	0.08
CCn1cc(CCC(=O)NCc2ccccc2OC)c2ccccc21	0.26	0.1
Cc1cc(OCc2nnc(SC(C)C(=O)O)n2-c2ccccc2)ccc1Cl (stereo not given)	0.82	-2.02
O=C(/C=C/c1cccs1)N1CCCC1	0.08	-0.44
O=C(N/C(=C/c1cccnc1)C(=O)N1CCOCC1)c1ccccc1	0.17	0.06
CC(C)(Oc1ccc(CCNC(=O)c2ccc(-c3ccccc3)o2)cc1)C(=O)O	0.71	-0.18
Cc1ccc2c(c1C)NC(=O)C2(O)CC(=O)c1ccc2c(c1)OCO2 (stereo not given)	0.91	-0.01
Nc1nc(-c2ccccc2)nc2sc3c(c12)CCCC3	0.14	-0.38
Cc1oc(-c2cc(F)ccc2F)nc1CN(C)Cc1ccc2nccnc2c1	0.32	2.49
CCOc1ccc2nc(N(CCN(CC)CC)C(=O)c3cccc([N+](=O)[O-])c3)sc2c1	1.01	-0.05
CCC(Br)C(=O)Nc1ccc(OC)cc1 (stereo not given)	0.2	-0.04

Shown with values under each structure: part of the list above
Screens in order – KCNQ2 pot, KCNQ2 pot baseline
Cc1ccc2c(c1C)NC(=O)C2(O)CC(=O)c1ccc2c(c1)OCO2 (stereo not given)
  0.91, -0.01
Nc1nc(-c2ccccc2)nc2sc3c(c12)CCCC3
  0.14, -0.38
Cc1oc(-c2cc(F)ccc2F)nc1CN(C)Cc1ccc2nccnc2c1
  0.32, 2.49
CCOc1ccc2nc(N(CCN(CC)CC)C(=O)c3cccc([N+](=O)[O-])c3)sc2c1
  1.01, -0.05
CCC(Br)C(=O)Nc1ccc(OC)cc1 (stereo not given)
  0.2, -0.04

Next part:
SMILES	KCNQ2 pot	KCNQ2 pot baseline
Cn1cc([N+](=O)[O-])c(C(=O)N/N=C/c2ccncc2)n1	0.58	-0.02
Cc1ccccc1OCC(=O)Nc1cccc2nsnc12	0.02	1.5
O=C(O)Cc1ccc(C(=O)c2ccc(Cl)cc2Cl)s1	0.43	0.03
COCCn1c(SCc2ccc(OC)c(F)c2)nnc1-c1ccncc1	0.01	-0.49
O=C(O)CCc1nnc(SCC(=O)Nc2ccc(Br)cc2)[nH]c1=O	1.79	0.25
COc1ccc(C2=Nn3c(nnc3-c3ccncc3)SC2)cc1	0.31	2.79
CCOC(=O)c1c(C)n(C)c2ccc(OC)c(NC(=O)CN3CCN(Cc4ccccc4)CC3)c12	1.69	-0.02
Cc1ccc(-c2nnc(Nc3ccc4c(c3)nc(C)n4C)c3ccccc23)cc1	1.62	-0.96
COCCCNS(=O)(=O)c1ccc2c(c1)CCN2C(C)=O	0.87	-0.6
COC(=O)C1CSC(C(=O)OC)N1C(=O)CN1CC(C)OC(C)C1 (stereo not given)	1.51	-0.96
Cn1c(N)c(C(=O)c2cc(-c3ccncc3)nc3ccccc23)c(=O)n(C)c1=O	0.75	1.11
O=C(COc1ccccc1F)NCC(c1ccco1)N1CCCC1 (stereo not given)	0.8	0.32
CCOC(=O)c1ccc(NC(=O)C2=C(C)Nc3nc(CCCO)nn3C2c2cccc(C)c2)cc1 (stereo not given)	0.47	0.02
Cc1onc(-c2ccccc2)c1C(=O)Nc1ccon1	1.01	1.82
O=C(c1cc2cccc([N+](=O)[O-])c2oc1=O)N1CCOCC1	1.19	1.1

Random excerpt: four entries already listed.
SMILES	KCNQ2 pot	KCNQ2 pot baseline
Cn1cc([N+](=O)[O-])c(C(=O)N/N=C/c2ccncc2)n1	0.58	-0.02
Cn1c(N)c(C(=O)c2cc(-c3ccncc3)nc3ccccc23)c(=O)n(C)c1=O	0.75	1.11
COCCCNS(=O)(=O)c1ccc2c(c1)CCN2C(C)=O	0.87	-0.6
Cc1ccc(-c2nnc(Nc3ccc4c(c3)nc(C)n4C)c3ccccc23)cc1	1.62	-0.96

Single records, from the list above. Order of screens: KCNQ2 pot | KCNQ2 pot baseline
Cn1c(N)c(C(=O)c2cc(-c3ccncc3)nc3ccccc23)c(=O)n(C)c1=O in the list: 0.75 | 1.11
O=C(O)CCc1nnc(SCC(=O)Nc2ccc(Br)cc2)[nH]c1=O in the list: 1.79 | 0.25
CCOC(=O)c1c(C)n(C)c2ccc(OC)c(NC(=O)CN3CCN(Cc4ccccc4)CC3)c12 in the list: 1.69 | -0.02
CCOC(=O)c1ccc(NC(=O)C2=C(C)Nc3nc(CCCO)nn3C2c2cccc(C)c2)cc1 (stereo not given) in the list: 0.47 | 0.02

Going on with the list.
SMILES	KCNQ2 pot	KCNQ2 pot baseline
CCCCc1ccc(-c2c(C#N)c(N)nc3c2CCCC3)s1	1.28	0.14
O=C(CSC(=S)N1CCCC1)N1CCN(S(=O)(=O)c2ccccc2F)CC1	0.84	3.56
CCOC(=O)c1sc2nc(COC(=O)c3c(F)cccc3F)[nH]c(=O)c2c1C	0.99	-0.03
CCOC(=O)NN1C(=O)c2ccccc2NC1C (stereo not given)	0.44	-0.71
S=C(NCc1ccncc1)Nc1ccccc1	1.57	-1.73
CCCn1nnnc1NCc1ccc(N2CCCC2)cc1	0.15	0.24
CON/C=N/C(=S)Nc1ncc(C(F)(F)F)cc1Cl	12.2*	0.07*
CCOC(=O)C1CCN(C(c2ccc(OC)c(OC)c2)c2sc3nc(C)nn3c2O)CC1 (stereo not given)	1.02	-0.52
COc1ccc(/C=C(\C#N)C(=O)OCC(=O)NCc2ccccc2OC)cc1	0.57	-0.31
Cc1ccc(CSCC(=O)NCCc2ccccc2)cc1	0.07	-0.89
Nc1cccc(Nc2nc(OC(C(F)(F)F)C(F)(F)F)nc(OC(C(F)(F)F)C(F)(F)F)n2)c1	0.06	0.48
COC(=O)c1nc(NNC(=O)c2ccccc2)sc1-c1ccccc1	2.23	3.23
CCn1c(SCC(=O)NCCc2ccccc2)nc2c([nH]c3ccccc32)c1=O	0.23	-1.33
Cc1cc2cc3c(cc2nc1SCC(=O)OC(C)C)OCCO3	0.25	-0.96
COc1cc(CN2CCN(c3cc(C)ccc3C)CC2)cc([N+](=O)[O-])c1O	0.75	-0.82
O=C(NCCN1C(=O)S/C(=C/c2cccnc2)C1=O)C1CC(=O)N(Cc2ccccc2)C1 (stereo not given)	0.34	1.35
COc1ccc(NC(=O)c2ccc(N3C(=O)C4CC=C(C)CC4C3=O)cc2)c(OC)c1 (stereo not given)	0.48	1.6
C=CCn1nc(-c2ccccc2)c(N2CCCCC2)cc1=O	1.11	0.18
Cn1c(-c2cc(Cl)ccc2O)nc2c1c(=O)[nH]c(=O)n2Cc1ccccc1	0.27	0.09
CCCc1nn2c(N)c(/C=C3\C=Nc4ccccc43)c(=O)nc2s1	2.16	nt
O=C(Nc1ccccc1C(=O)Nc1ccc2c(c1)OCO2)c1cccs1	1.87	-1.3
COc1ccc(OC)c2sc(NC(=O)c3ccc(Br)s3)nc12	0.3	-0.7
O=C(Nc1cccnc1)c1ccco1	0.03	0.71
COc1ccc2cc(S(=O)(=O)NCc3cccnc3)ccc2c1	2.19	0.04
Cc1ccccc1Nc1nc(N)nc(COC(=O)c2cccc(S(=O)(=O)N(C)C)c2)n1	1.85	1.22
O=C(O)c1ccc(Sc2nnc(-c3cccc(Br)c3)o2)c([N+](=O)[O-])c1	1.31	1.42
CS(=O)(=O)Nc1nnc(CCc2ccccc2)s1	0.95	-0.77
O=C(CNCc1ccc(F)cc1)Nc1ccc(C(=O)N2CCCCC2)cc1	1	-0.99
COc1cc2c(cc1OC)C(=S)NC(C)(C)C2	0.77	-0.14
C=CCn1c(=S)[nH]c2sccc2c1=O	0.17	1.64
CC(=O)Nc1ccc(NC(=O)C2CC(=O)N=C(N)S2)cc1 (stereo not given)	1.04	0.27
O=C(c1ccoc1)N1CCC2(CCCN(Cc3ccc(F)c(F)c3)C2)C1 (stereo not given)	0.78	0
COc1ccc(CNc2nc3nc(C)cc(C)n3n2)cc1OC	0.53	-2.46
CN(CC(=O)Nc1cccc(S(=O)(=O)N2CCCC2)c1)CC(=O)Nc1ccc(Cl)c(C(F)(F)F)c1	1.04	-2.45
COc1ccccc1C(=O)NC(=O)COC(=O)c1ccc(Cl)nc1	0.2	0.12
COc1cc2c(cc1OC)C(c1cccc(OC)c1OC)CC(=O)N2 (stereo not given)	0.21	0.4
CC12CCC(C(=O)N3CCCc4ccccc43)(OC1=O)C2(C)C (stereo not given)	0.01	1.07
COc1ccc(CC(=O)NCCC(C)C)cc1S(=O)(=O)N1CCOCC1	0.02	-1.27
CCN(CC)CC(=O)N(CC(=O)Nc1c(C)cc(C)cc1C)C1CCCCC1	1.06	0.09
CCOC(=O)c1c(N)sc2c1CCS(=O)(=O)C2	0.86	0.46
COc1ccc(-n2cnc3cc(N)ccc32)cc1	0.66	1.08
Cc1cccc(C)c1NC(=O)CSCc1cccc(CSCC(=O)Nc2c(C)cccc2C)n1	1.06	0.04
CCN(Cc1ccccc1)Cc1cc(OC)cc(OC)c1	0.33	0.79
CCOc1ccc(-n2cc(-c3ccccc3)c3c(=O)[nH]cnc32)cc1	0.58	2.57
COc1cccc(NC(=O)CSC2=C(C#N)C(c3ccco3)C3=C(CCCC3=O)N2)c1 (stereo not given)	0.48	-0.97
